LANA-nucl inh – inhibitors of KSHV LANA binding to nucleosomes. FITC-LANA1-23 / chicken nucleosome fluorescence polarization; stronger effect = lower value. z-score (no concentration beside the values). 51,000 compounds, 0.3% hits. AID 720717;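 active means both repeat wells score below -2 in polarization z-score versus plate sample wells, excluding overly bright wells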;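 further: 100 nL library stock added to about 30 µL; numbers are from one replicate; some results filed as inactive read as strong as hits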
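test system = FITC-LANA peptide and chicken nucleosomes | amount = 240 nM purified chicken nucleosomes (480 nM peptide binding sites), final | reagent = 50 nM FITC-LANA1-23 probe | medium = TEN-BT buffer, pH 7.5 | doses = single compound addition by pin transfer, 100 nL per well | timing = 10–45 min, room temperature | detection = fluorescence polarization | repeats = duplicate plates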
Ab BasE inh – blocks the Acinetobacter baumannii siderophore enzyme BasE | purified BasE, fluorescence polarization binding displacement | inhibition, % (test concentration not listed) | 84,000 compounds, 0.1% hits;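 active means both replicates above 25% with normal brightness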;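 further: 0% = negative plate control signal and 100% = positive plate control signal; stock transfer was 100 nL into about 30 µL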
Numbers without * were called inactive; nt = not tested or not shown; & = joins results of further samples. This is a subset. The share of hits here may be higher or lower than overall.

SMILES	Ab BasE inh	LANA-nucl inh
COc1ccc(C2Nc3nc4ccccc4n3C(N)=C2C#N)cc1 (stereo not given)	-2.0	0.269
Cc1nc(C)nc(N(Cc2ccccc2Cl)Cc2ccccc2Cl)n1	nt	0.617
CN(C1CCCCC1)S(=O)(=O)N1CCCC(C(=O)NCCCc2ccccc2)C1 (stereo not given)	0.3	1.42
O=C1NC2(CCCCC2)C(=O)N1CN1CCCC1c1ccc2c(c1)OCCCO2 (stereo not given)	2.1	nt
O=C(COc1ccccc1)Nc1ncc2c(n1)CCCC2=O	-0.3	1.21
Cc1ccc(CNC(=O)c2n[nH]c3c2CCCC3)cc1	0.6	0.324
Cc1ccc(N2C(=O)c3ccc(-c4nc5ccccc5o4)cc3C2=O)cc1C	1.9	-0.897
CCSc1nc2ccccc2c(=O)n1C1CCCC1	0.6	-0.241
Cc1c(C(=O)O)nnn1-c1ccccc1	0.5	0.371
C/C(=N\O)C(=O)c1ccc(-c2ccccc2F)cc1	2.7	nt
CC(C)C(=O)N1N=C2CCCCC2C1(O)C(F)(F)F (stereo not given)	-3.4	nt
CN1CCCc2cc(CN)ccc21	13.6	-1.79
Cc1cc2nc(Oc3ccccc3)c3ccccc3n2n1	-4.2	nt
Cc1ccc(NC(=O)/C=C2/SC(=O)N(CN3CCCCC3)C2=O)cc1	4.2	nt
Cc1ccc(C)n1-c1ccc(C(=O)OCC(=O)N2CCCC2)cc1	-2.6	nt
COc1cc(OC)cc(C(=O)n2nc(C)cc2C)c1	1.5	nt
Cc1cc(C2CCCCC2)n(O)c(=O)c1	0.6&0.5	-0.254&-0.24&-0.462
COc1ccc(-c2nc(C#N)c(NC3CCCCC3)o2)cc1	3.8	-0.91
CCNc1nc(-c2ccc(NC(=O)CC)cc2)cs1	-2.0	nt
Cc1cc(NC(=O)/C=C/c2ccco2)n(-c2nc3ccccc3n2Cc2cccc(Oc3ccccc3)c2)n1	-5.1	nt
COc1cc(C)c(NS(=O)(=O)c2cccs2)cc1OC	-0.7	nt
COc1ccc(-c2cc3nc(C)c(CCC(=O)NC(C)CCc4ccco4)c(C)n3n2)c(OC)c1 (stereo not given)	2.5	-0.474
CC1CCN(C(=O)CCCOc2ccc(Cl)cc2)CC1	0.4	-0.93
CC(NS(=O)(=O)/C=C/c1ccccc1)C(=O)O (stereo not given)	-3.4	nt
CCn1c(-c2ccc3c(c2)OCCO3)cnc1SCc1nc(-c2ccccc2)no1	-1.3	nt
O=C(N=C1N=C2C=CC=CN2Cc2ccccc21)c1ccncc1	1.4	nt
CN1C(=S)Cc2cc(Br)ccc21	-1.6	nt
CCCCn1c(SCC)nc2cc(S(N)(=O)=O)ccc21	1.3	nt
Brc1ccc2c(c1)OCCOCCOCCO2	-0.7	nt
O=C(C1COc2ccccc2O1)N(CC1CCCO1)c1nc2ccccc2s1 (stereo not given)	0.2	nt
Cn1c(SCc2nc3sc4c(c3c(=O)[nH]2)CCCC4)nnc1C(F)(F)F	-4.4	nt
CC(/C=C1\SC(=S)N(CCC(=O)N2CCN(C)CC2)C1=O)=C\c1ccccc1	1.9	nt
O=C(Cn1cc(C(F)(F)F)cc(Cl)c1=O)NC1CC1	3.2	nt
COCCN1CSC(=S)N(Cc2ccco2)C1	-0.4	-1.04
O=C(O)C1CCCN(S(=O)(=O)c2ccc(-c3ccc(=O)[nH]n3)s2)C1 (stereo not given)	-2.0	-0.166
CCOC(=O)c1cc(-c2ccc(S(=O)(=O)N(C)CC3COc4ccccc4O3)s2)on1 (stereo not given)	-0.3	0.378
O=C(O)CC1SC(N2CCCC2)=NC1=O (stereo not given)	3.9	-0.0445
Cc1occc1C(=O)Nc1cccc(-c2nn[nH]n2)c1	1.6	-0.123
COc1cccc(-c2cc(C(=O)NC3CCCC3)on2)c1	-11.8	-0.22
COc1ccc(N2CCN(C(=O)c3csc4c3CCCCC4)CC2)cc1	3.2	0.599
Cc1ccc(C(=O)Cn2c(=N)sc3cc(C)ccc32)cc1	2.4	nt
Cc1noc(C)c1COC(=O)c1cccc(S(=O)(=O)N(C)C2CCCCC2)c1	0.3	nt
O=C(CN1C(=O)c2cccc3cccc1c23)N/N=C/c1ccncc1	-1.4	nt
O=C(Nc1cc(Cl)cc(Cl)c1)N1CCN(Cc2ccccc2)CC1	nt	1.9
CC1C=CCC2C(=O)N(c3cccc(C(=O)O)c3)C(=O)C12 (stereo not given)	-2.2	-0.59
O=C(Nc1n[nH]c(C(F)(F)F)n1)c1ccco1	-1.6	nt
CC(/C=N/N=C1\SC(CC(=O)Nc2ccc(Cl)cc2)C(=O)N1Cc1ccco1)=C\c1ccccc1 (stereo not given)	1.4	nt
Cc1ccc(C)c(OC(=O)CCN2C(=O)C3CC=CCC3C2=O)c1C (stereo not given)	0.4	nt
N#CC1C(c2ccccc2F)C(C(N)=O)C(=O)NC1(O)c1ccccc1 (stereo not given)	13.4	-1.63
Nc1ncnc(N2CCc3ccccc32)n1	4.6	-0.448
CCOc1ccc(-c2nc(COC(=O)c3cccc(-n4cnnn4)c3)cs2)cc1OC	-0.6	nt
COc1cc(/C=N/NC(=O)c2cc(-c3cccn3C)n[nH]2)cc(OC)c1OC	1.2	0.148
COC(=O)C1=C(Nc2ccccc2NS(=O)(=O)c2cn(C)cn2)CSC1	1.8	nt
Cc1c(Cl)c(O)c(Cl)c(C)c1N(S(=O)(=O)c1ccccc1)S(=O)(=O)c1ccccc1	2.1	nt
COc1cccc(NC(=O)CCSc2nnc3ccc4ccccc4n23)c1	2.3	nt
CCN(Cc1ccccc1)C(=O)c1cccc(C#N)c1	1.8	nt
CN(C)c1cc(N)c2c(n1)CCC2	-2.5	-0.715
COc1ccc(C2=C(C#N)C(=O)OC2)cc1	nt	-0.0785
O=C(O)/C=C/C(=O)NC1CCN(c2nccc(C(F)(F)F)n2)CC1	0.9	nt
CC1(c2ccccc2)OC(=O)C(C#N)C12CCCCC2 (stereo not given)	3.0	-0.172

Additional entries:
SMILES	Ab BasE inh	LANA-nucl inh
OCC(O)CN1CCc2ccccc21 (stereo not given)	0.0	0.582
Cc1c(C2=CCN(S(=O)(=O)Cc3ccccc3)CC2)c2ccccc2n1CC(=O)N1CCCC1	-2.6	-0.155
COc1ccccc1OCCSc1nc(-c2ccccc2)c(-c2ccccc2)[nH]1	1.1	nt
O=C1NN=C2CC34CCC12CC3=NNC4=O	-3.5	nt
Cc1ccc(NC(=O)Cn2cnc3onc(C)c3c2=O)cc1C	-1.4	nt
COc1cccc2cc(-c3cc(=O)oc4ccc(OC(=O)N5CCOCC5)cc34)oc12	2.0	0.127
O=c1cc(CSc2nc3c(sc(=S)n3Cc3ccco3)c(=O)n2-c2ccccc2)c2ccc(O)cc2o1	1.8	0.114
CCc1ccc(C(=O)CC2(O)C(=O)N(C(C)C)c3ccccc32)cc1 (stereo not given)	-1.7	-0.083
O=S(=O)(NCc1ccco1)c1ccc(-c2ccc(S(=O)(=O)NCc3ccco3)cc2)cc1	-1.5	-0.59
Cc1cc2cc3c(cc2nc1SCC(=O)OC(C)C)OCO3	-1.4	1.5
CCOC(=O)c1ccc2c(N)c(-c3cccnc3)sc2n1	0.3	0.0205
CCN(CC)S(=O)(=O)c1ccc(C(=O)NCC(=O)Nc2nc3ccccc3[nH]2)cc1	5.0	nt
CCOC(=O)N1CCN(C(=O)N2c3ccccc3Sc3ccccc32)CC1	-0.9	0.126
CCOC(=O)Cn1cc2c(c1-c1ccccc1Br)c(=O)n(C)c(=O)n2C	-2.1	2.59
CN(C(=O)c1ccc2c(c1)OCO2)C1CCCCC1	nt	0.152
CC(C)(C)c1cc(SCCC#N)cc(C(C)(C)C)c1O	0.1	0.392
COc1ccccc1NC(=O)CSc1nnc(-c2cc3sccc3n2C)n1-c1c(C)cc(C)cc1C	-1.6	-0.988
FC(F)(F)c1ccc(Cl)nc1Cl	-1.7	nt
CN(Cc1ccccc1)C1(O)C(=O)Nc2ccc(Br)cc21 (stereo not given)	4.5	-0.31
O=c1[nH]nc(SCc2cscn2)n1CCc1ccccc1	-0.3	nt
Cc1n[nH]c(C)c1CCNC(=O)Nc1ccccc1-c1ccccc1	-1.3	0.192
C[C@H](NC(=O)c1ccc(F)cc1)c1nc2ccccc2[nH]1	0.5	nt
FC(F)(F)c1cnc2c(-c3ccc(Cl)cc3Cl)onc2c1	nt	3.1
Cc1cc(C(=O)Cn2cnnc2C#N)c(C)n1CCc1ccc(Cl)cc1	-0.6	nt
CCn1nc(C)c(NC(=S)Nc2ccc(OC)c(OC)c2)c1C	0.6	0.109
CCCCCOc1ccc(NC(=O)C(C)(C)C)cc1	-4.4	1.35
O=c1cc(CN2CCN(c3ccc(F)cc3)CC2)occ1OCC1OCCO1	0.0	0.502
O=C(Cn1nnc(-c2ccccc2)n1)N1CCCCC1	3.1	-0.478
CC(=O)N1CC(C)Oc2ccc(S(=O)(=O)N(Cc3ccccc3)C(C)C)cc21 (stereo not given)	-2.5	-1.11
Cn1c(=Nc2ccc(N3CCOCC3)cc2)ccc2ccccc21	-0.4	nt
O=C(c1cc2c(s1)-c1ccsc1CC2)N1CCN(c2ccccc2)CC1	1.2	0.203
O=c1c(=NNc2ccccc2)c(=O)c2ccccc12	-0.7	0.742
Cc1c(CN2CCSCC2)c(=O)n(-c2ccccc2)n1C	nt	-0.059
O=S(=O)(c1cccc(-c2nnco2)c1)N1CCCC1	0.4	nt
Cc1ccc(-n2c(C)cc(CO)c2C)cc1	-2.1	-0.871
CCn1c(=N)c(C(=O)OC)cc2c(=O)n3cc(C)ccc3nc21	2.1	0.448

Single values from the list.
`CCN(Cc1ccccc1)C(=O)c1cccc(C#N)c1` in Ab BasE inh = 1.8
`CN1CCCc2cc(CN)ccc21` in LANA-nucl inh = -1.79
`CN(C1CCCCC1)S(=O)(=O)N1CCCC(C(=O)NCCCc2ccccc2)C1` (stereo not given) in LANA-nucl inh = 1.42
`COc1ccc(N2CCN(C(=O)c3csc4c3CCCCC4)CC2)cc1` in Ab BasE inh = 3.2
`Cc1c(Cl)c(O)c(Cl)c(C)c1N(S(=O)(=O)c1ccccc1)S(=O)(=O)c1ccccc1` in Ab BasE inh = 2.1
`COc1cc(/C=N/NC(=O)c2cc(-c3cccn3C)n[nH]2)cc(OC)c1OC` in Ab BasE inh = 1.2

A draw from above in order of count of non-hydrogen atoms, rising.
SMILES	Ab BasE inh	LANA-nucl inh
Cc1ccc(-n2c(C)cc(CO)c2C)cc1	-2.1	-0.871
CCCCCOc1ccc(NC(=O)C(C)(C)C)cc1	-4.4	1.35
O=C(c1cc2c(s1)-c1ccsc1CC2)N1CCN(c2ccccc2)CC1	1.2	0.203

Remaining list, next part
SMILES	Ab BasE inh	LANA-nucl inh
CC(C)(C)C1CCC2(CC1)C(C#N)=C(SCC(=O)NC1CCCCC1)NC(=O)C2C#N (stereo not given)	1.0	0.228
COc1ccc(-c2cn[nH]c2-c2ccc(OC)cc2)cc1	nt	0.018
CCc1nnc(/N=C/c2cc(-c3ccccc3)oc2O)s1	-0.2	-0.268
O=C(Cn1cnnn1)Nc1cc(C(F)(F)F)ccc1NC1CCCCC1	0.9	nt
CC(Nc1nn2nnnc2c2ccccc12)c1ccccc1 (stereo not given)	0.4	0.03
CN1C(=O)c2cccc(NC(=O)c3ccccc3)c2C1=O	-1.4	-0.625
CN(C)S(=O)(=O)c1ccc(S(=O)(=O)N2CCN(CCC#N)CC2)cc1	-1.6	-0.36
CC(C)(C)C1=CC(=O)C(N2CCN(Cc3ccccc3)CC2)=CC1=O	0.5	nt
N#Cc1ccc(COC(=O)CN2C(=O)CSc3ccccc32)cc1	-0.3	nt
CC(C)C(=O)Nc1ccc(-c2nc3ccccc3c(=O)[nH]2)cc1	0.7	-0.443
COc1ccc(CC(=O)OCC(=O)NC2CCCCC2)cc1	-0.2	nt
Cc1nnc2sc(-c3ccc(NC(=S)NC(=O)c4cccs4)cc3)nn12	3.0	0.936
O=C1CN(S(=O)(=O)c2ccc3c(c2)Cc2ccccc2-3)CC(=O)N1	-1.8	0.084
CCn1c(SCC(=O)OC)nnc1-c1ccc(O)cc1	1.1	-0.936
CCCn1c(CSc2ncccn2)nc2cc(S(=O)(=O)N3CCOCC3)ccc21	0.7	nt
Nc1c(C(=O)Nc2ccccc2)c2nc3ccccc3nc2n1/N=C/c1ccco1	nt	0.547
CCN1C(=O)CN(c2ccccc2)C1=S	-3.0	-2.8
CN(C)S(=O)(=O)c1ccc(C(=O)OCC(=O)Nc2ccccc2)cc1	-0.4	nt
COC(=O)C(Cc1ccccc1)NS(=O)(=O)c1ccc(OC)cc1 (stereo not given)	-2.6	nt
CCOC(=O)c1cccc(NC(=O)N2CCSc3ccccc32)c1	0.0	-0.314
Cc1ccc(N2CN=c3s/c(=C4\C(=O)N(C)c5ccccc54)c(=O)n3C2)cc1	4.3	-0.476
CCCCNC1=NCCCS1	-1.1	nt
O=C(NCc1ccco1)NC1CCCN1S(=O)(=O)c1ccc(Cl)cc1 (stereo not given)	2.2	nt
OC[C@H]1O[C@@H](n2cnc3c(NC4CCCC4)nc(Cl)nc32)[C@@H](O)C1O (stereo not given in full)	nt	-0.268
CC(=O)Oc1ccc(C(=O)N(C(=O)c2ccc(OC(C)=O)cc2)c2cc(C)ccn2)cc1	2.8	nt
O=C(c1cc2ccccc2o1)N1CCCC1	-2.0	-1.69
COc1ccc(CC(C#N)C#N)cc1	nt	1.28
O=C(CCc1n[nH]c(=S)[nH]c1=O)NCCc1ccc(Cl)cc1Cl	0.5	nt

Bioassay records: PubChem, ICCB-Longwood Screening Facility, Harvard Medical School
